Source: PubChem
VACV mCherry inh: inhibitors of vaccinia virus infection (mCherry reporter signal). Vaccinia virus mCherry reporter infection, fluorescence; about a quarter of the inactives have no number. Potency, µM (top dose mostly 36.5 µM), without a hit: at the highest dose activity change, negative = inhibition, actives largely listed as inhibitors. actives 0.63% (n = 310,000). AID 720579; active = well fitted inhibition curve with a large enough effect; inconclusive = small, poorly fitted or top-dose-only effect; inactive = no such curve, though single readings can be large or run the other way; tested in A549 cells; also: nearly all actives have a fitted effect of over 35% in size; inactives centre near -10
VACV Venus inh: inhibitors of vaccinia virus (Venus reporter); Vaccinia virus Venus reporter expression, fluorescence; Potency, µM (highest dose often 36.5 µM), for the others: at the highest dose activity change, negative = inhibition, hits mostly inhibitors; actives 0.46% (n = 330,000); AID 720580; active means well fitted inhibition curve with a large enough effect; inconclusive means small, poorly fitted or top-dose-only effect; inactive means no such curve, though single readings can be large or run the other way; tested in A549 cells; also: nearly all actives have a fitted effect of over 30% in size; inactives centre near -10
An asterisk follows results filed as active; [ ] = dose if it differs, or a comment. % is scaled to controls: 0 for no effect and ±100 for the full control effect; potency is read from the fitted curve at half-maximal effect.

Results for COC(=O)C1=C(c2ccccc2OCc2ccccc2)C[C@@H]2CC[C@H]1N2C(=O)NCc1cccc(C(F)(F)F)c1 ?
VACV mCherry inh: -4.8%; VACV Venus inh: inconclusive

Results for Fc1ccc(NC(=S)NN=C2CCCCCC2)cc1 ?
VACV mCherry inh: -15.8%; VACV Venus inh: -4.0%

Results for O=C(CSc1nnc(NC(=O)C2CC2)s1)NCc1ccccc1 ?
VACV mCherry inh: -2.7%; VACV Venus inh: -3.8%

What do the screens show for `O=C(COC(=O)c1cc(S(=O)(=O)N2CCOCC2)ccc1O)Nc1cc(S(=O)(=O)N2CCCC2)ccc1Cl`?
VACV mCherry inh: inactive; VACV Venus inh: -7.9%

What do the screens show for `COc1ccc(Cn2c(=O)c3oc4ccccc4c3n(Cc3ccccc3)c2=O)cc1`?
VACV mCherry inh: -3.1%; VACV Venus inh: -1.7%

Results for CCOC(=O)c1ccc(N=c2scc(C)n2CC)cc1 ?
VACV mCherry inh: inactive; VACV Venus inh: 11.7%

How did O=C(NCc1ccccc1)C1=C[C@H](c2csc3ccccc23)C[C@H](OCCCCO)O1 do in these assays?
VACV mCherry inh: -24.4%; VACV Venus inh: inconclusive

How did CCOC(=O)C1CCCN(C(=O)C2COc3ccccc3O2)C1 (stereo not drawn) do in these assays?
VACV mCherry inh: inactive; VACV Venus inh: -7.7%

How did COCc1c(C(=O)N(C)Cc2ccccc2N2CCCC2)oc2ccccc12 do in these assays?
VACV mCherry inh: inactive; VACV Venus inh: -11.5%

How did Cc1cc(SCC(=O)Nc2ccc(Cl)cc2)nc2ccccc12 do in these assays?
VACV mCherry inh: -5.9%; VACV Venus inh: -2.3%

What do the screens show for `O=C(Nc1cccc(Cl)c1)C1CCCN(c2nn3cc(-c4ccc(F)cc4)nc3s2)C1` (stereo not drawn)?
VACV mCherry inh: -24.1%; VACV Venus inh: -26.4%

Results for O=C(c1ccc2c(c1)N(Cc1cccc(Cl)c1)C(=O)c1ccccc1S2(=O)=O)N1CCN(c2cccc(C(F)(F)F)c2)CC1 ?
VACV mCherry inh: inconclusive; VACV Venus inh: inconclusive

What do the screens show for `CC1CN(CC(=O)Nc2ccc(S(N)(=O)=O)cc2)CC(C)O1` (stereo not drawn)?
VACV mCherry inh: inactive; VACV Venus inh: -6.7%

How did Cc1ccc(-c2c(NC(=O)c3ccco3)oc3ccccc3c2=O)cc1 do in these assays?
VACV mCherry inh: -9.7%[7.34 µM]; VACV Venus inh: -2.9%[7.34 µM]

Results for Cc1ccccc1OCC(=O)NCC(c1ccc(Cl)cc1)N1CCOCC1 (stereo not drawn) ?
VACV mCherry inh: -14.0%; VACV Venus inh: -23.8%

What do the screens show for `COc1ccc(Cn2cnc3c(N)c(C)c(C)cc32)cc1`?
VACV mCherry inh: -15.0%; VACV Venus inh: -6.4%

What do the screens show for `CCOc1ccc(NC(=O)C2CCCN(c3nn4cc(-c5ccc(OC)cc5)nc4s3)C2)cc1` (stereo not drawn)?
VACV mCherry inh: -28.9%; VACV Venus inh: -27.0%

What do the screens show for `Cc1ccc(N(CC(=O)NC(C)c2ccccc2)S(=O)(=O)c2cccs2)cc1` (stereo not drawn)?
VACV mCherry inh: -7.6%; VACV Venus inh: -25.1%

Results for CCCCn1c(C)c(C(=O)OCC)c2c(CN3CCOCC3)c(O)ccc21 ?
VACV mCherry inh: -22.3%; VACV Venus inh: -16.9%

Results for O=C(NCCCNC(=O)c1ccccn1)c1ccc(Br)cc1 ?
VACV mCherry inh: inactive; VACV Venus inh: -13.5%

How did CC1(Cc2ccc(F)cc2)C(=O)Nc2ccc(-c3cccnc3)cc21 (stereo not drawn) do in these assays?
VACV mCherry inh: -18.3%; VACV Venus inh: -7.8%

Results for COc1cc(C)c(C(=O)Oc2cc(C)c(C(=O)O)c(O)c2C)c(O)c1C ?
VACV mCherry inh: -2.4%; VACV Venus inh: 3.1%

How did COc1ccccc1S(=O)(=O)N[C@@H]1CC[C@@H](CCn2cc(C3CC3)nn2)O[C@@H]1CO do in these assays?
VACV mCherry inh: -1.6%; VACV Venus inh: -22.4%

Results for CN(Cc1ccccc1)C(=O)c1ncn2c1C(=O)N(C)CC2 ?
VACV mCherry inh: 7.3%; VACV Venus inh: -13.2%

How did Cc1cc(Cl)ccc1NNC(=O)CCc1ccccc1 do in these assays?
VACV mCherry inh: -24.5%; VACV Venus inh: -15.0%

What do the screens show for `CCCCN(C(=O)c1cc(S(=O)(=O)N2CCOCC2)ccc1N1CCOCC1)c1ccccc1`?
VACV mCherry inh: -23.1%; VACV Venus inh: -24.8%

How did Cc1ccc(Cl)cc1NC(=O)CN(C)S(=O)(=O)c1ccc2c(c1)n(C)c(=O)c(=O)n2C do in these assays?
VACV mCherry inh: -14.2%; VACV Venus inh: 0.5%

Results for Cc1ccc(S(=O)(=O)/N=C(/NNC(=O)c2cccc(Cl)c2)c2ccccc2)cc1 ?
VACV mCherry inh: -14.7%; VACV Venus inh: 0.1%

Results for Cc1cccc(S(=O)(=O)NC(=O)C2(C)CCN2C(=O)C/C=C/c2ccccc2)c1 (stereo not drawn) ?
VACV mCherry inh: inactive; VACV Venus inh: -1.3%

What do the screens show for `COc1ccc(C(C)(C)C)cc1NC(=O)CCCN1C(=O)NC(C)(C)C1=O`?
VACV mCherry inh: inactive; VACV Venus inh: -9.4%

Results for CC(NC(=O)c1ccc(Br)cc1)c1ccc2c(c1)CCCC2 (stereo not drawn) ?
VACV mCherry inh: -6.7%; VACV Venus inh: -26.7%

How did Cc1cccc2nc(CSCc3ccco3)cn12 do in these assays?
VACV Venus inh: 5.2%

How did O=C(COc1ccc2c3c(c(=O)oc2c1)CCC3)N1CCCCC1 do in these assays?
VACV mCherry inh: inconclusive; VACV Venus inh: -28.1%

How did O=S(=O)(NCc1ccc(F)cc1)c1cccc(S(=O)(=O)N2CCOCC2)c1 do in these assays?
VACV mCherry inh: -13.0%; VACV Venus inh: -4.9%

What do the screens show for `CCOC(=O)N1CCN(S(=O)(=O)N2CCCC(C(=O)NCc3ccc(C)cc3)C2)CC1` (stereo not drawn)?
VACV mCherry inh: -5.8%; VACV Venus inh: -12.9%

Results for COC(=O)Nc1ccc(S(=O)(=O)N2CCCC(C(=O)NC3CCS(=O)(=O)C3)C2)cc1 (stereo not drawn) ?
VACV mCherry inh: -5.6%; VACV Venus inh: 8.9%

How did COCCNC(=O)c1[nH]c2cc(C)ccc2c1Sc1ccc(Cl)cc1 do in these assays?
VACV mCherry inh: -7.3%; VACV Venus inh: -13.3%

What do the screens show for `CC1=C(/C=C/C(C)=N\NC(=O)c2ccncc2)C(C)(C)CCC1`?
VACV mCherry inh: inactive; VACV Venus inh: -19.4%

How did Cc1ccc(OCCNC(=O)c2ccc(COc3ccccc3)o2)cc1 do in these assays?
VACV mCherry inh: -5.2%; VACV Venus inh: -12.5%

What do the screens show for `O=C(NCCCc1ccccc1)c1ccccc1`?
VACV Venus inh: -19.8%

Results for CC(C)CCOc1ccc(C(=O)NN2C(=O)NC3(CCCCC3)C2=O)cc1 ?
VACV mCherry inh: inactive; VACV Venus inh: -14.3%

What do the screens show for `Cc1ccc(CNC(=O)CSCc2ccccc2F)cc1`?
VACV mCherry inh: -13.5%; VACV Venus inh: -16.7%

What do the screens show for `CCCOc1cc(CN2CCCCC2)cc(C(C)=O)c1`?
VACV Venus inh: -20.9%

Results for COc1ccc(OC)c(S(=O)(=O)N2CCC(C(=O)NC3CC3)CC2)c1 ?
VACV mCherry inh: inactive; VACV Venus inh: -5.2%

What do the screens show for `Cc1cccc(NC(=O)CCNC(=O)c2ccco2)c1`?
VACV mCherry inh: inactive; VACV Venus inh: -20.8%

Results for COc1cccc(Nc2nc(C(N)C3CCCCC3)cs2)n1 (stereo not drawn) ?
VACV mCherry inh: -11.4%; VACV Venus inh: -10.3%

How did CC1(c2ccc(OC(F)F)cc2)NC(=O)N(CC(=O)Nc2ccc(N3CCCCC3)cc2)C1=O (stereo not drawn) do in these assays?
VACV mCherry inh: inactive; VACV Venus inh: -15.5%

What do the screens show for `COc1ccc(C(=O)Nc2nnc(S(=O)(=O)N(CC(C)C)c3ccccc3)s2)cc1`?
VACV mCherry inh: -26.0%; VACV Venus inh: -27.1%

Retrieved by structure from above, 5 records:
What do the screens show for `CC1=C(/C=C/C(C)=N\NC(=O)c2ccncc2)C(C)(C)CCC1`?
VACV mCherry inh: inactive; VACV Venus inh: -19.4%

What do the screens show for `CCCOc1cc(CN2CCCCC2)cc(C(C)=O)c1`?
VACV Venus inh: -20.9%

How did CC1(c2ccc(OC(F)F)cc2)NC(=O)N(CC(=O)Nc2ccc(N3CCCCC3)cc2)C1=O (stereo not drawn) do in these assays?
VACV mCherry inh: inactive; VACV Venus inh: -15.5%

What do the screens show for `Cc1cccc(NC(=O)CCNC(=O)c2ccco2)c1`?
VACV mCherry inh: inactive; VACV Venus inh: -20.8%

Results for CC(C)CCOc1ccc(C(=O)NN2C(=O)NC3(CCCCC3)C2=O)cc1 ?
VACV mCherry inh: inactive; VACV Venus inh: -14.3%

Remaining list, next part:
Results for S=C(Nc1cccc(Cl)c1)Nc1ccccc1Oc1ccccc1 ?
VACV Venus inh: inconclusive

Results for CC(=O)Nc1nc(C=C(Cl)Cl)cs1 ?
VACV mCherry inh: -26.0%; VACV Venus inh: -14.4%

Results for Cc1ccc(NS(=O)(=O)c2ccccc2)c(NS(=O)(=O)c2ccccc2)c1 ?
VACV mCherry inh: -3.2%; VACV Venus inh: -7.5%

What do the screens show for `Cc1nn(-c2ncc(C(F)(F)F)cc2Cl)c(=O)n1-c1cccc(F)c1`?
VACV mCherry inh: -11.5%; VACV Venus inh: -5.1%

How did CNc1cccc(-c2cc(OC)c(OC)c(OC)c2)n1 do in these assays?
VACV mCherry inh: 16.8%; VACV Venus inh: -11.1%

Results for O=c1[nH]c(=O)n(Cc2ccco2)c(O)c1C=NCc1cccs1 ?
VACV mCherry inh: -15.3%; VACV Venus inh: -13.4%

Results for COc1ccccc1NS(=O)(=O)c1cc(C(=O)NCC(C)(C)N2CCOCC2)ccc1C ?
VACV mCherry inh: -5.4%; VACV Venus inh: -3.4%

What do the screens show for `CCc1ccc(N(C(=O)c2csnn2)C(C(=O)NC(C)(C)CC)c2cccnc2)cc1` (stereo not drawn)?
VACV mCherry inh: -28.0%; VACV Venus inh: -7.0%

Results for Cc1cc2nc(-c3ccc(=O)[nH]c3)n(C)c2cc1C ?
VACV mCherry inh: -13.6%; VACV Venus inh: -11.2%

What do the screens show for `CCOC(=O)C1OC1C(=O)NC(CC(C)C)C(=O)NCCC(C)C` (stereo not drawn)?
VACV mCherry inh: -17.1%[60.7 µM]; VACV Venus inh: -4.4%[60.7 µM]

How did COc1ccc(Cl)cc1NS(=O)(=O)c1cccc(C(=O)NC2CC2)c1 do in these assays?
VACV mCherry inh: -11.0%; VACV Venus inh: -13.2%

Results for Nc1ncnc2c1ncn2[C@@H]1O[C@H](CO)C[C@H]1O ?
VACV mCherry inh: -14.7%; VACV Venus inh: -9.7%

The last 2 entries of the section above are carried over, then new ones follow.
How did COc1ccc(Cl)cc1NS(=O)(=O)c1cccc(C(=O)NC2CC2)c1 do in these assays?
VACV mCherry inh: -11.0%; VACV Venus inh: -13.2%

Results for Nc1ncnc2c1ncn2[C@@H]1O[C@H](CO)C[C@H]1O ?
VACV mCherry inh: -14.7%; VACV Venus inh: -9.7%

Results for O=CN1CCN(C(C(=O)NC2CCCC2)c2cc3c(cc2[N+](=O)[O-])OCO3)CC1 (stereo not drawn) ?
VACV mCherry inh: -4.6%; VACV Venus inh: -12.4%

What do the screens show for `CCCOC1CCCN(C(=O)c2ccc(OC3CCN(C(=O)CCOC)CC3)cc2)C1` (stereo not drawn)?
VACV mCherry inh: -2.4%; VACV Venus inh: -16.2%

Results for O=C(CN1CCN(C(=O)C2COc3ccccc3O2)CC1)Nc1ccc(F)cc1 (stereo not drawn) ?
VACV mCherry inh: -7.9%; VACV Venus inh: 0.0%

Results for Cc1ccc(-c2nc3ccc(Cl)cn3c2Cc2cccc(F)c2)cc1 ?
VACV mCherry inh: 28.6%; VACV Venus inh: 1.3%

What do the screens show for `O=S(=O)(c1ccc(N2CCN(S(=O)(=O)c3ccccc3)CC2)nc1)N1CCCC1`?
VACV mCherry inh: -4.5%; VACV Venus inh: -9.9%

How did CC(C)(C)c1nnc2sc(SCC(=O)NCc3ccco3)nn2c1=O do in these assays?
VACV mCherry inh: inactive; VACV Venus inh: -5.6%

What do the screens show for `Cc1cc(C)n(-c2nnc(N3CCN(c4ccccc4)CC3)nn2)n1`?
VACV mCherry inh: inconclusive; VACV Venus inh: -7.5%

Results for COC(=O)N1C(=O)[C@](c2ccccc2)(C2CCCCC2)N1C(=O)OC ?
VACV mCherry inh: inconclusive; VACV Venus inh: -26.6%

What do the screens show for `COc1cc(OC)c(OC)cc1/C=N/N(C)c1ccccc1`?
VACV Venus inh: -16.8%

Results for CN(CC(=O)NCCc1ccc(Cl)cc1)S(=O)(=O)c1cccs1 ?
VACV mCherry inh: -21.5%; VACV Venus inh: -1.1%

How did CCCCn1c(N)c(N(CCOC)C(=O)c2cc(C)oc2C)c(=O)[nH]c1=O do in these assays?
VACV mCherry inh: -10.4%; VACV Venus inh: -2.5%

Results for Cc1onc(-c2ccccc2)c1C(=O)Nc1cccc(S(=O)(=O)N2CCCCC2)c1 ?
VACV mCherry inh: -18.6%; VACV Venus inh: -14.0%

Results for CNC(=S)N(Cc1ccc(OC)cc1)Cc1cc2cc(C)ccc2[nH]c1=O ?
VACV mCherry inh: -13.9%; VACV Venus inh: 0.8%

What do the screens show for `Cc1ccc2c(CC(=O)NCc3cccs3)coc2c1`?
VACV mCherry inh: -7.5%; VACV Venus inh: -13.6%

What do the screens show for `COc1ccc(NC(=O)CC2C(=O)N(C)C(=S)N2CCc2ccccc2F)cc1` (stereo not drawn)?
VACV mCherry inh: -9.1%; VACV Venus inh: -6.3%
